Screens as filed in PubChem.
HNF4A DNA FP: change in binding of human HNF4 alpha to DNA. actives 0.3% (n = 360,000). HNF4a-FITC DNA binding, fluorescence polarization, 1 h. P41235. activity change, % at 10 µM. AID 1224865; in the data active means activity change above about 30%, passing the limit was not always enough;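 further: controls were the assay level and a saturating level of protein; the project sought stronger binding though the title names inhibitors; some compounds called inactive have numbers as strong as hits; positive values seem to mean higher polarization but the record does not say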
Target sequence (P41235 whole entry, looked up): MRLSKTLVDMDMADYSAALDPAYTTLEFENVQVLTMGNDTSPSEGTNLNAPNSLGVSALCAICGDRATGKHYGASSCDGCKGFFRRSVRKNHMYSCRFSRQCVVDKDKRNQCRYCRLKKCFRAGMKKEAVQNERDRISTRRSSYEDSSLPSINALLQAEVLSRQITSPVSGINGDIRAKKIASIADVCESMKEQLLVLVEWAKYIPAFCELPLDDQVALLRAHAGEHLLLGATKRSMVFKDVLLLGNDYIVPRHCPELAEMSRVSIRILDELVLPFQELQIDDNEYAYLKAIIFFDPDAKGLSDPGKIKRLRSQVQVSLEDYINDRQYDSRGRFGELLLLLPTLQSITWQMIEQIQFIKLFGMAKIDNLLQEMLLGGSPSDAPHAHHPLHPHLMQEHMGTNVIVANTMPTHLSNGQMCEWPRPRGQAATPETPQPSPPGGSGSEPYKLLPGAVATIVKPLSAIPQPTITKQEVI
Ecoli growth: blocks Escherichia coli growth; OD600, 23 h; stronger effect = lower value; OD600 absorbance (no concentration beside the values); actives 0.21% (n = 330,000);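 active means OD600 absorbance below the run mean of sample wells minus 3.6 SD, in any replicate, cut at about 0.56 in these data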;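 further: stock transfer was 300 nL into about 60 µL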
Beta2AR agonist: agonists of human beta-2 adrenergic receptor inducing internalization; response, % (test concentration not listed); P07550; Am2.2-beta2AR cells, FAP receptor internalization, flow cytometry; reference of the scale not given here; actives 0.43% (n = 340,000);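 active means response above a set limit, near 3 SD of response in nonfluorescent compounds, cut at about 42% in these data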;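 further: stock transfer was 100 nL into about 11 µL; a reference agonist was the positive control; negative values mostly stem from fluorescent compounds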
LANA-H2A inh: blocks KSHV LANA binding to histone H2A/H2B. cell-free LANA-H2A/H2B peptide, fluorescence polarization. inhibition, % (test concentration not listed). actives 0.6% (n = 320,000). AID 2629; in the data active means inhibition mostly above about 10%, no sharp cut-off; inactive means mostly below about 6.7%;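 further: stock transfer was 7.5 nL into about 10 µL; 0% = median of vehicle wells and 100% = median of positive control wells; one replicate is shown; the record names a cut of 25% in any replicate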
ALR H2O2 inh: inhibitors of human sulfhydryl oxidase ALR; purified ALR, DTT oxidation, H2O2 HRP-luminol luminescence; P55789; inhibition, % (concentration not given with the values); AID 485317; actives 3.8% (n = 290,000);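 active means mean and each replicate at 75% or more; inconclusive means only one of the two met; inactive means neither met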;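 further: stock transfer was 7.5 nL into about 7.5 µL; 0% = neutral wells and 100% = wells with inactivated enzyme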
Target sequence (P55789 whole entry, looked up): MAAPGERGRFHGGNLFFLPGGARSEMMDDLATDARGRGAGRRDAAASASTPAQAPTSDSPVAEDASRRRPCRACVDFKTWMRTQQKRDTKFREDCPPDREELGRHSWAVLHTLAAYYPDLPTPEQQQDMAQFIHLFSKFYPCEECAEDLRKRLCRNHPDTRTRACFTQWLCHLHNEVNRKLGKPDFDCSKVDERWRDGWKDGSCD
UCH37 inh: blocks the human deubiquitinase UCH37; purified proteasome/UCH37, Ub-AMC cleavage fluorescence; inhibition, % (test concentration not listed); actives 0.33% (n = 330,000); Q9Y5K5; AID 588478;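 active means mean of two replicates above 20%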;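 further: 0% = compound-free wells with enzyme and 100% = wells lacking proteasome; stock transfer was 100 nL into about 20 µL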
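Schedule: 30 min plus 25 min, room temperature / Material: human UCH37 within purified proteasomes / Technique: AMC fluorescence intensity at 355/460 nm / Buffer or medium: pH 7.4 Tris-HCl (50 mM) with ovalbumin, ATP-MgCl2, DTT / Controls: wells without proteasome as full block, compound-free enzyme plus substrate as uninhibited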
FGF22 binding: FGF22 (human) thermal shift binding | Q9HCT0 | recombinant FGF22 thermal shift, SYPRO orange fluorescence; percent of sucrose octasulfate shift, DMSO zero | calls only at 9.99 µM | actives 1.5% (n = 340,000) | AID 651658;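 active means melting point raised past a set limit in the mean and every replicate; inconclusive means no clear call; three in four hits are not shown here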
Target sequence (Q9HCT0 whole entry, looked up): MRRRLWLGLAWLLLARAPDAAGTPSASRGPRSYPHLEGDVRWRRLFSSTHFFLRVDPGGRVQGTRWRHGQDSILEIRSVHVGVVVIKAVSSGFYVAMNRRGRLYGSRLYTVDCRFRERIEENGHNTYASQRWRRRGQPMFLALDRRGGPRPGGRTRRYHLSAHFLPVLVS
Starred values were filed as active, the others as inactive; i = inactive; ? = inconclusive; . = not tested or not shown; + = active, no number. Not all compounds are listed, so the mix of outcomes need not match the whole.

no.	SMILES	LANA-H2A inh	ALR H2O2 inh	Ecoli growth	HNF4A DNA FP	FGF22 binding	UCH37 inh	Beta2AR agonist
1	CC(C)c1cc(C(=O)NNC(=S)NCc2ccco2)c(O)c(C(C)C)c1	2.7	.	0.692	-1.8	.	-4.5	3.9
2	O=C(CN(Cc1ccc(F)cc1)C(=O)CNS(=O)(=O)c1ccccc1)NCC1CCCO1 (stereo unspecified)	-2.1	.	0.655	-1.4	i	0.5	1.9
3	CC(=O)Nc1ccc(N(C(=O)CNC(=O)c2ccco2)C(C(=O)NCc2ccco2)c2ccccc2F)cc1 (stereo unspecified)	5.7	-2.7	0.604	-1.1	i	2.8	-8.9
4	COc1ccc(/C(O)=C2/C(=O)C(=O)N(CCN3CCOCC3)C2c2ccccn2)cc1OC (stereo unspecified)	-0.7	-13.6	0.725	-0.9	.	8.5	-5.5
5	Cc1cccc(C)c1NC(=O)CCCn1nc(C)c2c(C)n(-c3ccccc3)nc2c1=O	-1.0	6.3	0.672	0.7	i	3.4	-4.9
6	Cc1cc(C)cc(NC(=O)C(OC(=O)c2cc[n+]([O-])cc2)c2ccccc2)c1 (stereo unspecified)	-0.5	0.1	0.708	-3.6	i	-1.2	-5.1
7	CC1CCN(S(=O)(=O)c2ccc(-c3nnc(SCc4cccnc4)o3)cc2)CC1	-0.7	-1.2	0.738	-0.5	.	4.5	-5.0
8	O=C(Cc1ccccn1)c1ccc(Cl)cc1	-1.8	1.3	.	3.5	i	3.7	-1.3
9	Cc1ccccc1NC(=O)c1cc(S(=O)(=O)N2CCOCC2)cs1	-3.2	1.9	0.706	-0.5	.	1.6	-3.3
10	COc1ccc(Cn2c(=O)oc3ccc(C)cc32)cc1	1.6	4.2	.	2.3	i	.	-5.8
11	c1ccc(C2CCC(N3CCC(N4CCCCC4)CC3)CC2)cc1 (stereo unspecified)	-0.9	-32.7	0.647	.	.	3.2	.
12	CCN(CC)C(=O)N1c2ccccc2Sc2ccccc21	-4.7	?	0.685	-4.7	i	4.5	0.0
13	Cc1ccccc1C(=O)NC(=S)NCCc1ccccc1	-3.2	.	0.653	-2.8	.	-0.4	-8.2
14	COc1ccc(/C=N/Nc2cc(C)nc3c(C)cccc23)cc1	-2.7	4.5	.	5.0	i	.	37.0
15	Cn1cccc1C(=O)OCC(=O)c1cc2ccccc2o1	-3.1	-8.7	0.69	9.6	.	-0.2	-2.3
16	CCc1ccccc1NC(=S)Nc1cc(OC)c(NC(=O)C(C)C)cc1OC	-4.2	5.0	0.627	0.7	i	3.4	3.0
17	Cc1ccc(N2C(=O)CCC(C(=O)O)C2c2cccs2)cc1 (stereo unspecified)	-0.2	-3.4	0.647	0.5	i	0.4	-0.8
18	CCN(CC)C(=O)Cn1cc(S(=O)(=O)CC(=O)Nc2cc(OC)ccc2OC)c2ccccc21	1.1	-76.7	0.738	0.0	i	3.5	6.5
19	COc1ccccc1CSc1nc2ccccc2[nH]1	-6.7	-5.9	0.679	2.6	i	3.6	-13.4
20	CCc1ccc2oc(C(=O)NCc3ccc(S(N)(=O)=O)cc3)c(C)c2c1	-3.0	-3.3	0.661	0.0	i	2.8	-5.9
21	O=S(=O)(c1cc(F)ccc1F)N1CCN(c2ncccn2)CC1	3.1	-21.7	0.662	-1.4	i	0.8	-4.2
22	CC(C)Oc1ccc(C(=O)N(Cc2ccco2)C2CCS(=O)(=O)C2)cc1 (stereo unspecified)	11.9	-0.2	0.643	0.8	i	4.2	-8.1
23	O=C(NCc1ccc2c(c1)OCO2)c1ccc(CS(=O)Cc2ccc(Cl)cc2)o1 (stereo unspecified)	7.8	-3.1	0.678	-2.8	i	0.0	-3.1
24	O=C(COC(=O)c1ccc([N+](=O)[O-])o1)NCCCc1ccccc1	1.3	-14.3	0.664	-0.3	i	20.1*	9.4
25	CCN(CC)c1ccc(NC(=O)CN(C)Cc2cccs2)cc1	2.0	99.0*	0.668	2.5	i	3.2	33.5
26	Cc1nnc(SCC(=O)NC(C)c2ccccc2)[nH]c1=O (stereo unspecified)	-2.8	-3.7	0.772	-0.6	.	2.2	2.9
27	CCOC(=O)c1snc2c(=O)[nH]cnc12	2.1	-4.4	0.629	3.4	.	-197.5	11.1
28	Cc1onc(-c2c(F)cccc2Cl)c1C(=O)N1CCCC1	.	.	0.676	3.4	i	3.1	-3.6
29	COc1ccc(CCNC(=O)CCc2cc(OC)c(OC)c(OC)c2)cc1	4.3	-5.2	0.687	-1.4	i	2.1	0.1
30	COc1ccccc1N1CCN(C(=O)C2CCN(C(=O)c3ccccc3C)CC2)CC1	-3.6	11.5	0.689	1.0	i	1.5	-2.1
31	COCCNC(=O)Cn1c(=O)n(CCCC(=O)NCc2ccc3c(c2)OCO3)c(=O)c2sccc21	2.0	.	0.676	-1.7	i	3.2	-1.1
32	O=P(c1ccccc1)(c1ccccc1)c1nc(-c2ccccc2)oc1N1CCOCC1	-1.0	-8.3	0.656	0.5	i	-0.8	-1.2
33	CC(CCc1ccccc1)NC(=O)CN1C(=O)NC2(CCCCC2)C1=O (stereo unspecified)	1.3	-5.0	0.637	0.1	i	1.4	-2.0
34	COc1ccc(C(=O)CN2C(=O)NC3(CCCCCC3)C2=O)c(OC)c1	1.7	-4.9	0.653	-3.9	i	2.9	-3.2
35	CCOC(=O)CC1COCCN1C(=O)CCc1nnc(-c2ccsc2)o1 (stereo unspecified)	1.3	-8.4	0.702	-1.0	i	-1.9	-270.8
36	COc1ccc(C(C)(C)C)cc1NC(=O)c1ccc2ncsc2c1	4.5	-9.1	0.664	3.7	i	2.6	-11.2
37	O=C1NC(Cc2ccc(O)cc2)c2nc3ccc(F)cc3c(=O)n2-c2cc(Cl)ccc21 (stereo unspecified)	.	.	.	-1.7	i	.	3.6
38	CCCc1nnc(NC(=O)CCC(=O)N2CCN(Cc3ccccc3)CC2)s1	-0.2	-1.7	0.639	3.0	i	2.6	-1.4
39	Nc1c(S(=O)(=O)c2cccc(Cl)c2)c2nc3ccccc3nc2n1CCN1CCOCC1	6.7	-20.8	0.725	3.8	.	-123.0	2.9
40	Cc1nc2ccc(S(=O)(=O)N(C)CC(=O)N3CCc4ccccc43)cc2s1	-1.3	-7.8	0.66	-1.0	.	0.8	3.6
41	CCCC(C)NC(=O)c1ccccc1SC (stereo unspecified)	4.8	-2.4	0.67	-0.3	.	0.3	14.2
42	CCOC(=O)/C=C(\C)Sc1cc(=O)oc2ccccc12	4.1	27.5	0.725	5.2	.	5.7	-5.3
43	O=C(NNC(=O)c1ccccc1Cl)c1csc(N2CCOCC2)n1	-0.9	.	0.691	-0.8	i	0.7	-2.4
44	Cc1cc(OCC(=O)Nc2ccccc2F)nc(C(C)C)n1	1.6	-4.1	0.647	3.0	.	2.5	-0.6
45	CN1C(C(=O)Nc2cccc(O)c2)=CC(c2cccs2)=NS1(=O)=O	-2.6	12.0	0.708	-0.5	i	5.3	-4.2
46	CC(C)CCN1CCN(C2CCN(c3ccccc3)CC2)CC1CCO (stereo unspecified)	0.8	98.5*	0.695	0.1	i	2.6	6.2
47	O=C(CNCCC1=CCCCC1)Nc1ccccc1N1CCCCCC1	8.8	19.2	0.603	-2.1	i	2.6	6.7
48	CCCn1c(SCC(=O)Nc2cc(C(=O)O)ccc2C)nc2sc3c(c2c1=O)CCC3	.	.	0.711	-0.8	i	1.3	19.1
49	CCc1cc(C(=O)c2ccc(OC)cc2)c(NC(=O)COCC(=O)O)s1	4.8	.	0.658	-0.5	i	8.7	-7.8
50	CCOc1cc(/C=N/N2CCN(Cc3ccccc3)CC2)ccc1O	1.8	69.8	.	-2.7	i	.	-3.8
51	Cc1cc(/C=C2\SC(=S)NC2=O)c(C)n1C	0.8	33.8	0.656	44.2*	i	15.1	1.5
52	CN(Cc1cccc(Cl)c1)C(=O)C1CCN(C(=O)Nc2ccccc2)CC1	-2.1	-7.3	0.657	0.6	.	0.4	20.4
53	O=C(CCC(=O)N1CCCCCC1)NCc1ccc(F)cc1	-2.8	-10.1	0.67	5.1	i	1.2	-4.2
54	Cn1nnnc1SCC(=O)Nc1cc(S(=O)(=O)N2CCCC2)ccc1Cl	0.4	-3.8	0.659	-0.6	i	5.6	-4.6
55	COc1ccc(OC)c(NC(=O)N[C@H](Cc2ccccc2)C(=O)NN)c1	1.7	-14.1	0.665	1.4	i	3.9	10.4
56	COc1nsnc1NS(=O)(=O)c1ccc(NC(=S)NC(=O)c2cccnc2)cc1	-5.4	38.7	0.062*	-0.8	+	5.3	-1.3
57	CCn1ccnc1CN1CCN(CC=C(C)C)C(CCO)C1 (stereo unspecified)	-3.1	-7.0	0.664	0.7	i	0.3	-3.4
58	CCn1c(COc2cccc(OC)c2)nnc1SCC(=O)NCC1CCCO1 (stereo unspecified)	7.6	.	0.711	-1.5	i	2.5	-4.5
59	CN(C)c1ccc(C(=O)OCc2ccccc2)cc1	-2.4	-4.9	0.73	1.3	.	1.2	-9.1
60	O=C(NCC(c1ccco1)N1CCN(c2ccccc2)CC1)C(=O)NC1CC1 (stereo unspecified)	-1.5	4.9	0.62	3.4	i	-0.8	-7.4

Arranged by value in LANA-H2A inh (low to high): 3 of the compounds above.
nr | Molecule | LANA-H2A inh | ALR H2O2 inh | Ecoli growth | HNF4A DNA FP | FGF22 binding | UCH37 inh | Beta2AR agonist
32 | O=P(c1ccccc1)(c1ccccc1)c1nc(-c2ccccc2)oc1N1CCOCC1 | -1.0 | -8.3 | 0.656 | 0.5 | i | -0.8 | -1.2
46 | CC(C)CCN1CCN(C2CCN(c3ccccc3)CC2)CC1CCO (stereo unspecified) | 0.8 | 98.5* | 0.695 | 0.1 | i | 2.6 | 6.2
41 | CCCC(C)NC(=O)c1ccccc1SC (stereo unspecified) | 4.8 | -2.4 | 0.67 | -0.3 | . | 0.3 | 14.2

The list continues:
no.	SMILES	LANA-H2A inh	ALR H2O2 inh	Ecoli growth	HNF4A DNA FP	FGF22 binding	UCH37 inh	Beta2AR agonist
61	Cc1cc(NC(=O)C(C)N2C(=O)c3ccccc3S2(=O)=O)no1 (stereo unspecified)	7.9	3.3	0.705	-1.0	i	2.5	-5.5
62	CCCCNc1cc(C)nc(N2CCOCC2)n1	1.1	4.2	0.786	-0.4	.	-2.2	-0.6
63	O=C(NNC(=O)c1ccc(S(=O)(=O)N2CCCCC2)cc1)c1ccccc1	8.2	0.3	0.672	-2.5	i	3.5	-2.3
64	COc1ccc(NC(=O)c2nc(C)c(C3(C)CC(c4ccccc4)=NO3)s2)cc1 (stereo unspecified)	4.0	.	0.711	-0.6	i	0.5	-4.5
65	O=c1c2ccccc2nc(SCc2cccc(F)c2)n1C1CCCC1	0.7	.	0.688	3.6	.	6.0	11.6
66	O=C(COC(=O)c1ccccc1Nc1ccc(SC(F)F)cc1)NCc1ccco1	1.4	-5.3	0.689	-3.1	.	-16.5	-3.6
67	O=C(COC(=O)Cc1ccc(S(=O)(=O)N2CCOCC2)s1)Nc1ccc([N+](=O)[O-])cc1	-1.6	7.1	0.701	-2.0	i	1.3	4.5
